HSV_replic_up = enhancers of HSV replication in host cells, fold increase, host cell viability; HSV replication augmentation in cells; maximum fold increase; 220,000 compounds, 0.005% hits; AID 1956, 2009;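 active = peak rise of 1.5-fold or more in the series; tested in PC3 cells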;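 note: first round at 10 µM; read as green reporter fluorescence; hits show the peak of a series up to 25 µM; 1 = signal of infected wells without compound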
HSV_replic_up_primary_fold = recorded beside HSV_replic_up, whose call it bears; fold increase; compound at 10 µM; measured here: primary screen fold increase 10 uM; tested in PC3 cells;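 GFP signal in the first replicate; 1 = infected wells without compound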
The depositor's hits bear a star; i = inactive. This is a subset; rates above refer to the full screens.

SMILES HSV_replic_up HSV_replic_up_primary_fold
CN(C)CC/C=C1/c2ccccc2COc2ccc(CC(=O)O)cc21 i 1.1
Cc1cc(=O)oc2cc(O)ccc12 i 1.1

From PubChem
